PKD1 kinase inh = inhibitors of human PKD1 kinase, biochemical, fluorescence polarization; Serine/threonine-protein kinase D1 (Homo sapiens), Q15139; PKD1 kinase fluorescence polarization assay; inhibition, %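 (about 10 µM by stock and volumes)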; hit rate 0.056% among 200,000; AID 797, 2007;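 active = inhibition of 50% or more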;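 also: controls were vehicle for no effect and a reference inhibitor for full effect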
Target sequence (Q15139 whole entry, looked up): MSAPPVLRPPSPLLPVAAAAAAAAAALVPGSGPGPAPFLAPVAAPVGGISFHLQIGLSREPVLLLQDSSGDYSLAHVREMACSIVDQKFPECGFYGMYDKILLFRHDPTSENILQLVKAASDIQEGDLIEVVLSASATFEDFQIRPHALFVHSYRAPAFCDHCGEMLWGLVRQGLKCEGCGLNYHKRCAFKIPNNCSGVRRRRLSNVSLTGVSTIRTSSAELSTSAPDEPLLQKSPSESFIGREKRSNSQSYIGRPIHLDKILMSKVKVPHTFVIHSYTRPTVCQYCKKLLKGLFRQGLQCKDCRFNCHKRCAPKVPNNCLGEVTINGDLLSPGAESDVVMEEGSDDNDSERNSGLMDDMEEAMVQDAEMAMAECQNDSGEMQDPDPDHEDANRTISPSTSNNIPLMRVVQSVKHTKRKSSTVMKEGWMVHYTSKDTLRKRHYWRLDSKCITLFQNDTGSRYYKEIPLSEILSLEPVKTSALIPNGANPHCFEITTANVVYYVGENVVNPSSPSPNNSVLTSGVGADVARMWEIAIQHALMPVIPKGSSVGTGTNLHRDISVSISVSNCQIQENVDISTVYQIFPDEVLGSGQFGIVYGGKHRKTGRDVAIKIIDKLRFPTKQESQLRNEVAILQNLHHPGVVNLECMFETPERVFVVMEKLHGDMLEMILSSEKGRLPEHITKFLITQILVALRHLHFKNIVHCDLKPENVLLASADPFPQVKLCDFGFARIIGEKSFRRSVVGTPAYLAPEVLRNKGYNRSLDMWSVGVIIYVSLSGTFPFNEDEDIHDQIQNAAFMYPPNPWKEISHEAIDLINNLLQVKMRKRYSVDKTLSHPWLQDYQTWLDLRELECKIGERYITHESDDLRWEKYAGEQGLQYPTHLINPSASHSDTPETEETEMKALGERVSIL
INS promoter inh = inhibitors of insulin promoter-driven GFP, primary screen, imaging, TRM-6 cells (human fetal islet line), eGFP reporter, cell count | hit rate 0.9% among 130,000 | reporter expression induced with tamoxifen | inhibition, % at 2 µM;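 active = inhibition above the mean plus 3 SD, with well images judged a real hit on visual review, cut at about 60% in these data, passing the limit was not always enough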
HSV replic up = enhancers of HSV replication in host cells, fold increase, host cell viability | HSV replication augmentation in cells | maximum fold increase | hit rate 0.005% among 220,000 | AID 1956, 2009;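 active = peak rise of 1.5-fold or more in the series; tested in PC3 cells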;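 also: first round at 10 µM; read as green reporter fluorescence; hits show the peak of a series up to 25 µM; 1 = signal of infected wells without compound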
GALR2 agonist = GALR2 receptor agonists, primary screen, cell-based. Galanin receptor type 2 (Homo sapiens), O43603. GALR2-expressing cells, agonist activation read-out. activation, %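 (tested at 5 µM)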. hit rate 0.48% among 140,000. AID 803, 2007;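 active = above mean plus 3 SD of all compounds, about 5% in these data, not always enough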;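 also: 0% = vehicle buffer wells and 100% = reference agonist at full effect; tested in CHO reporter cells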
RGS16-Gao HTS = modulators of RGS16 binding to Galphao, primary screen, biochemical, human proteins, multiplexed bead flow cytometry. hit rate 0.38% among 220,000. AID 1441, 2008. Regulator of G-protein signaling 16 (Homo sapiens) + Guanine nucleotide-binding protein …. bead-based flow cytometry RGS16-Galphao binding, fluorescence; actives lie on both sides. binding response (% of control), % at 10 µM;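 active = below 25% or above 175%, edge rows of some plates excepted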;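 also: Galphao activated by GDP with aluminum fluoride before binding; 100% = wells without compound and 0% = beads without RGS; some results beyond the cut were filed as inactive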
INS promoter inh cell count = second read-out of INS promoter inh, no call of its own (marks repeat the call); normalized cell count, %; measured here: cell count, toxicity; reference of the scale not given here;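 cells exposed to compound for 48 h; stained nuclei by imaging scaled within each plate; lower means fewer cells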
HSV replic up primary fold = further read-out of HSV replic up, marked with its call; fold increase; compound at 10 µM; measured here: primary screen fold increase 10 uM; tested in PC3 cells;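 GFP signal in the first replicate; 1 = infected wells without compound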
An asterisk follows results filed as active; i = inactive; . = not tested or not shown.

no.	SMILES	PKD1 kinase inh	INS promoter inh	INS promoter inh cell count	HSV replic up
1	CCCOc1ccc(N2C(=O)CC(N3CCN(c4nc5ccccc5s4)CC3)C2=O)cc1 (stereo unspecified)	-4	19	58	i
2	O=C(O)CCCC(=O)OCCCCc1cccs1	-5	.	.	i
3	CS(=O)(=O)N(Cc1ccco1)Cc1ccccc1Cl	-12	39	90	i
4	CCOC(=O)N1CCN(C(=O)CSc2nnc(CNC(=O)c3c(F)cccc3Cl)o2)CC1	-4	0	125	i
5	Cc1ccc(NC(=S)NCc2ccccc2)cc1S(=O)(=O)N1CCCCC1	-1	-29	169	i
6	Cc1noc(C)c1COC(=O)CCCNC(=O)c1ccc(Cl)cc1	-7	.	.	i
7	COC(=O)CSc1nnc(-c2ccncc2)n1N	-3	-48	73	i
8	CCCCCNC(=O)c1c[nH]c2ccc(S(=O)(=O)N3CCC4(CC3)OCCO4)cc2c1=O	3	39	106	i
9	CC(C)(C)n1nc2c(c1NC(=O)c1ccc(S(=O)(=O)N3CCCCC3)cc1)CS(=O)C2 (stereo unspecified)	-4	.	.	i
10	CCOc1ccc(C2C(C#N)=C(N)Oc3nc[nH]c(=O)c32)cc1 (stereo unspecified)	-8	.	.	i
11	CC(C)COc1ccc(C(=O)NC(=S)Nc2ccc(CN3CCOCC3)cc2)cc1	7	-2	107	i
12	O=c1cc(CO)oc(C(Nc2ccccn2)c2ccccc2Cl)c1O (stereo unspecified)	-2	.	.	i

no.	HSV replic up primary fold	GALR2 agonist	RGS16-Gao HTS
1	0.97	0.6	109
2	0.92	0.7	91
3	0.89	-3.5	101
4	1.2	-2.1	109
5	0.94	.	103
6	0.92	.	112
7	0.9	-2.0	97
8	0.91	-1.3	111
9	1.1	0.1	99
10	1.1	.	95
11	1.2	-0.7	103
12	0.81	.	98

Further structures.
no.	SMILES	PKD1 kinase inh	INS promoter inh	INS promoter inh cell count	HSV replic up
13	CC1CN(C(=O)CN2C(=O)NC3(CCCCCC3)C2=O)CC(C)O1 (stereo unspecified)	-3	19	128	i
14	O=C(O)CNC(=S)N(Cc1ccccc1)Cc1cccs1	-2	.	.	i
15	COc1ccc(C2NCCc3c2[nH]c2ccccc32)cc1CSc1nc2ccccc2s1 (stereo unspecified)	-3	.	.	i
16	COc1ccccc1-n1cnnc1SCC(=O)Nc1cc(C)on1	2	.	.	i
17	CCCSc1nnc2n(N)c(=O)c3ccccc3n12	-4	28	99	i
18	COCCNC(=O)COc1ccc(C)c(C)c1	-3	50	55	i
19	COc1ccc(C2c3ccc(O)cc3Oc3ncn(CCCO)c(=N)c32)cc1 (stereo unspecified)	.	.	.	i
20	Cc1nc2c(C)cccn2c1/C(O)=C1\C(=O)C(=O)N(CCN(C)C)C1c1ccncc1 (stereo unspecified)	-5	3	96	i
21	COc1ccccc1NC(=O)NCc1ccccc1F	0	.	.	i
22	CC(C)(C)C(=O)Nc1nc(-c2ccccc2)ns1	-7	25	78	i
23	CN1C(=S)SC2CS(=O)(=O)CC21C (stereo unspecified)	.	.	.	i
24	Cc1cc(NS(=O)(=O)c2ccc(NC(=O)CCCOc3ccccc3)cc2)no1	-3	.	.	i

no.	HSV replic up primary fold	GALR2 agonist	RGS16-Gao HTS
13	1.2	-3.1	101
14	0.81	.	99
15	0.49	1.2	105
16	0.84	.	257
17	1	-1.3	105
18	0.86	-1.2	101
19	1.2	.	102
20	0.96	-1.9	116
21	1	.	106
22	0.96	-0.6	54
23	0.91	.	103
24	0.82	-0.1	99

More results.
no.	SMILES	PKD1 kinase inh	INS promoter inh	INS promoter inh cell count	HSV replic up
25	CCOc1cc(/C=C2\SC(=O)N=C2N)ccc1O	12	-12	117	i
26	COc1ccc(C(=O)Nc2nc3ccc4nc(C)sc4c3s2)cc1	1	.	.	i
27	CCOC(=O)c1ccc(NC(=O)N2CCN(S(C)(=O)=O)CC2)cc1	3	1	119	i
28	O=C(CN1C(=O)c2ccccc2C1=O)Nc1ccc(S(=O)(=O)NCC2CCCO2)cc1 (stereo unspecified)	-1	-2	127	i
29	C=CCNC(=O)CC(=O)N/N=C/c1ccc(F)cc1	-2	.	.	i
30	CC(NS(=O)(=O)c1ccc(F)cc1)C(=O)NCc1ccncc1 (stereo unspecified)	-8	14	98	i
31	Clc1ccc(-c2noc(CCCOc3ccccc3)n2)cc1	0	-8	57	i
32	C/C=C/C=C/[C@H]1Cc2cc(O)cc(O)c2O1	.	.	.	i
33	Cc1nc(-c2cnn(-c3ccccc3)c2)c2cc(C)oc2n1	6	-51	62	i
34	Clc1ccc(OCc2nc(-c3ccncc3)no2)c(Cl)c1	-5	-8	206	i
35	O=P(O)(O)c1ccccc1OCCOCCOc1ccccc1P(=O)(O)O	-7	-16	106	i
36	CCN(CC)C(=O)CSc1nnc(-c2ccc(S(=O)(=O)NCc3ccccc3Cl)cc2)o1	8	-12	59	.

no.	HSV replic up primary fold	GALR2 agonist	RGS16-Gao HTS
25	1.1	-2.2	95
26	1	-4.9	37
27	1.1	-3.0	101
28	0.94	-1.3	91
29	0.96	-0.7	102
30	1.1	-1.8	116
31	0.92	-5.9	107
32	1.1	.	103
33	0.91	3.2	74
34	1.1	0.2	99
35	0.92	-0.8	99
36	.	-2.3	102

(cont.)
no.	SMILES	PKD1 kinase inh	INS promoter inh	INS promoter inh cell count	HSV replic up
37	COc1ccc(NC(=O)CN2C(=O)CSC2=O)cc1	-3	-7	115	i
38	COc1ccccc1NC(=O)c1ccc2snnc2c1	-2	.	.	i
39	Cc1cccc(N(CC(=O)N/N=C/c2ccc(OCC(=O)NCc3ccco3)cc2)S(C)(=O)=O)c1C	5	-54	35	i
40	O=C(c1cccc(S(=O)(=O)N2CCCCCC2)c1)N1CCN(c2ccccc2)CC1	-6	.	.	i
41	Cc1cccc(-c2noc(CCC(=O)Nc3ccccc3)n2)c1	-3	6	126	i
42	CC1=NOC(=O)/C1=C/c1ccc(N(C)C)cc1	-15	23	97	i
43	CC(C)CC(CO)N1CCN(C(=O)c2ccc(Cl)cc2Cl)CCC1=O (stereo unspecified)	-14	-14	88	i
44	COC(=O)CNC(c1ccccc1Cl)c1cc(Br)ccc1NC(=O)CCN1CCOCC1 (stereo unspecified)	-9	-25	108	i
45	CCCn1c(N)c(N(CCOC)C(=O)/C=C/c2ccc(C(=O)OC)cc2)c(=O)[nH]c1=O	-3	30	32	i
46	O=C1C2C(C(=O)N1/N=C/c1cc([N+](=O)[O-])ccc1O)C1C=CC2C12CC2 (stereo unspecified)	6	32	110	i
47	Cc1ccc(CNc2nc(N)c([N+](=O)[O-])c(NCCO)n2)cc1	.	.	.	i
48	Cc1cc(C)c2cc(CN(CC3CCCO3)C(=S)NCc3ccco3)c(=O)[nH]c2c1 (stereo unspecified)	3	.	.	i

no.	HSV replic up primary fold	GALR2 agonist	RGS16-Gao HTS
37	0.92	.	100
38	0.95	.	100
39	0.84	0.4	84
40	0.93	.	108
41	0.93	-3.0	77
42	0.99	-1.3	100
43	1.1	-1.4	104
44	0.84	-1.6	96
45	1	.	111
46	1.1	-0.6	121
47	0.84	.	105
48	0.88	.	107

Additional entries:
no.	SMILES	PKD1 kinase inh	INS promoter inh	INS promoter inh cell count	HSV replic up
49	CC(C)C(O)(C(=O)NNc1ccccc1)C(C)C	.	.	.	i
50	O=c1[nH]n(-c2cccc3cccnc23)c(=O)c2ccccc12	4	0	155	i
51	CCN(CCn1cccn1)Cc1nc(Cc2cccc(F)c2)no1	-1	.	.	i
52	Cc1ccc(CO/N=C\Cc2snc(Sc3ncc(C(F)(F)F)cc3Cl)c2C#N)cc1	-4	3	127	i
53	CCOC(=O)Cc1csc(N/C(=N/S(=O)(=O)c2ccc(Cl)cc2)c2ccccc2)n1	-13	41	118	i
54	COc1ccccc1N(CC(=O)NCc1ccccc1)C(=O)CCC(=O)Nc1ccccn1	0	-69	102	i
55	COc1ccc(CC(=O)OCC(=O)Nc2ccc(Br)cc2)cc1	1	.	.	i
56	Cc1nc2c(C(=O)NCc3ccc(F)cc3)c[nH]n2c(=O)c1Cl	-6	.	.	i
57	O=C(c1ccc2c(c1)OCO2)C1CCCN(Cc2cn[nH]c2-c2ccccc2)C1 (stereo unspecified)	2	.	.	i
58	CC(=O)Nc1ccc(/C=N/NC(=O)CNC(=O)c2ccccc2)cc1	-1	11	50	i
59	O=C(CSc1nc2[nH]ncc2c(=O)[nH]1)NCc1ccccc1Cl	-2	-4	82	i
60	CC1(C)Cc2c(C#N)c(OCC(=O)c3ccccc3)nc(-c3ccoc3)c2CO1	-24	13	104	i
61	COc1ccc(-c2[nH]ncc2CN(CCO)Cc2cccs2)c(F)c1	13	.	.	i

no.	HSV replic up primary fold	GALR2 agonist	RGS16-Gao HTS
49	0.92	.	108
50	1	-1.4	99
51	1.1	.	97
52	1.3	-3.1	100
53	0.93	-1.1	109
54	0.99	-1.0	105
55	0.96	.	99
56	0.83	-2.2	92
57	1.1	.	98
58	0.96	.	106
59	1	-1.1	106
60	1	-3.0	82
61	1	.	97

An excerpt from above in order of the GALR2 agonist value, largest number first.
no.	SMILES	PKD1 kinase inh	HSV replic up primary fold	GALR2 agonist	RGS16-Gao HTS
53	CCOC(=O)Cc1csc(N/C(=N/S(=O)(=O)c2ccc(Cl)cc2)c2ccccc2)n1	-13	0.93	-1.1	109
60	CC1(C)Cc2c(C#N)c(OCC(=O)c3ccccc3)nc(-c3ccoc3)c2CO1	-24	1	-3.0	82
52	Cc1ccc(CO/N=C\Cc2snc(Sc3ncc(C(F)(F)F)cc3Cl)c2C#N)cc1	-4	1.3	-3.1	100

Of the compounds above, 19 contain a halogen.
no.	SMILES	PKD1 kinase inh	INS promoter inh	INS promoter inh cell count	HSV replic up
3	CS(=O)(=O)N(Cc1ccco1)Cc1ccccc1Cl	-12	39	90	i
4	CCOC(=O)N1CCN(C(=O)CSc2nnc(CNC(=O)c3c(F)cccc3Cl)o2)CC1	-4	0	125	i
6	Cc1noc(C)c1COC(=O)CCCNC(=O)c1ccc(Cl)cc1	-7	.	.	i
12	O=c1cc(CO)oc(C(Nc2ccccn2)c2ccccc2Cl)c1O (stereo unspecified)	-2	.	.	i
21	COc1ccccc1NC(=O)NCc1ccccc1F	0	.	.	i
29	C=CCNC(=O)CC(=O)N/N=C/c1ccc(F)cc1	-2	.	.	i
30	CC(NS(=O)(=O)c1ccc(F)cc1)C(=O)NCc1ccncc1 (stereo unspecified)	-8	14	98	i
31	Clc1ccc(-c2noc(CCCOc3ccccc3)n2)cc1	0	-8	57	i
34	Clc1ccc(OCc2nc(-c3ccncc3)no2)c(Cl)c1	-5	-8	206	i
36	CCN(CC)C(=O)CSc1nnc(-c2ccc(S(=O)(=O)NCc3ccccc3Cl)cc2)o1	8	-12	59	.
43	CC(C)CC(CO)N1CCN(C(=O)c2ccc(Cl)cc2Cl)CCC1=O (stereo unspecified)	-14	-14	88	i
44	COC(=O)CNC(c1ccccc1Cl)c1cc(Br)ccc1NC(=O)CCN1CCOCC1 (stereo unspecified)	-9	-25	108	i
51	CCN(CCn1cccn1)Cc1nc(Cc2cccc(F)c2)no1	-1	.	.	i
52	Cc1ccc(CO/N=C\Cc2snc(Sc3ncc(C(F)(F)F)cc3Cl)c2C#N)cc1	-4	3	127	i

no.	HSV replic up primary fold	GALR2 agonist	RGS16-Gao HTS
3	0.89	-3.5	101
4	1.2	-2.1	109
6	0.92	.	112
12	0.81	.	98
21	1	.	106
29	0.96	-0.7	102
30	1.1	-1.8	116
31	0.92	-5.9	107
34	1.1	0.2	99
36	.	-2.3	102
43	1.1	-1.4	104
44	0.84	-1.6	96
51	1.1	.	97
52	1.3	-3.1	100

no.	SMILES	PKD1 kinase inh	INS promoter inh	INS promoter inh cell count	HSV replic up
53	CCOC(=O)Cc1csc(N/C(=N/S(=O)(=O)c2ccc(Cl)cc2)c2ccccc2)n1	-13	41	118	i
55	COc1ccc(CC(=O)OCC(=O)Nc2ccc(Br)cc2)cc1	1	.	.	i
56	Cc1nc2c(C(=O)NCc3ccc(F)cc3)c[nH]n2c(=O)c1Cl	-6	.	.	i
59	O=C(CSc1nc2[nH]ncc2c(=O)[nH]1)NCc1ccccc1Cl	-2	-4	82	i
61	COc1ccc(-c2[nH]ncc2CN(CCO)Cc2cccs2)c(F)c1	13	.	.	i

no.	HSV replic up primary fold	GALR2 agonist	RGS16-Gao HTS
53	0.93	-1.1	109
55	0.96	.	99
56	0.83	-2.2	92
59	1	-1.1	106
61	1	.	97

High-throughput results deposited in PubChem BioAssay by several laboratories.
